# GSK3A inh: blocks human GSK-3 alpha kinase | P49840 | ADP-Glo luminescence, 60 min | inhibition, % at 10 µM | 320,000 compounds, 0.1% hits | AID 2650;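 in the data active = inhibition above about 50%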;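 note: GST-tagged GSK-3 alpha with peptide substrate and 25 µM ATP; 0% = DMSO neutral wells and 100% = GW8510 positive control wells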
# Target sequence (P49840 whole entry, looked up): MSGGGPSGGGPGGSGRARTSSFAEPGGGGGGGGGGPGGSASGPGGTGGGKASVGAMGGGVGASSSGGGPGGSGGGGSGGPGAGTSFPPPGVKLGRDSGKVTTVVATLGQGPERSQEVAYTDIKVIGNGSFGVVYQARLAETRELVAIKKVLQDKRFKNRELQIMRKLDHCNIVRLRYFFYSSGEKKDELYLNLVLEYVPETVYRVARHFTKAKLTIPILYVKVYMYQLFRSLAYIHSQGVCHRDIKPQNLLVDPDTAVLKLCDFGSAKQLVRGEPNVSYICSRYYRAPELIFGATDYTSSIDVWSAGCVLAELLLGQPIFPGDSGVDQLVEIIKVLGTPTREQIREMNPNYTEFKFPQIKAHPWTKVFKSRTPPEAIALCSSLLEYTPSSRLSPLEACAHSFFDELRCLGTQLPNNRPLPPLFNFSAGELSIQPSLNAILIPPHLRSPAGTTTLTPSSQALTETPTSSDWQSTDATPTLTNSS
# PolyA inh: inhibitors of polyadenylation in S. cerevisiae; calls only at 12 µM; S. cerevisiae SKY197-pL101 polyadenylation reporter, beta-gal luminescence; efflux-impaired pdr1/pdr3 knockout yeast; score 100 = 6 SD above DMSO; AID 1875; 300,000 compounds, 0.02% hits;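 active = lowest replicate activity score at least 50, where 100 means six control SD above control mean; inconclusive = lowest score under 50 but half or more replicates reach 50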;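 note: yeast exposed to compound for 9 h at 30 °C; higher score means more reporter readthrough which indicates perturbed polyadenylation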
# HSP90 refold inh: blocks HSP90-mediated luciferase refolding in reticulocyte lysate; Rabbit reticulocyte lysate, luciferase refolding luminescence, 3 h; inhibition, % at 5.6 µM; 290,000 compounds, 0.91% hits; AID 1789;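 active = inhibition above the screen-wide mean plus 3 SD, computed separately per campaign, cut at about 16% in these data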;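 note: 0% = DMSO wells and 100% = 60 µM geldanamycin wells; inhibitors lower the luminescence because luciferase stays unfolded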
# HDAC3 inhib: inhibitors of human histone deacetylase 3 | recombinant HDAC3, fluorogenic peptide/trypsin coupled, fluorescence | inhibition, % at 8.3 µM | O15379 | AID 2718 | 320,000 compounds, 0.15% hits; in the data active = inhibition above about 26%, passing the limit was not always enough; inconclusive = no clear call, values can overlap the other calls
# AI-2 QS modul: modulators of Vibrio harveyi AI-2 quorum sensing system; activity change, % at 7.5 µM; Vibrio harveyi JMH597 AI-2 luminescence/OD600 ratio, 9 h; active compounds read low; strain lacks LuxN and CqsS sensors; 0 = neutral-control median; 300,000 compounds, 0.4% hits; in the data active = activity change below about -75%, passing the limit was not always enough; inconclusive = no clear call, values can overlap the other calls;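 note: luminescence divided by OD600 gain over 9 h not by final OD600 alone; inactives centre near 13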
# GSK3B inh: human GSK3beta kinase inhibition. P49841. GST-GSK3beta kinase, ADP-Glo luminescence, 60 min; active compounds read low. activity score (negative = inhibition), % at 10 µM. 300,000 compounds, 0.038% hits;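 active = more than half of replicate wells score below -50%, meaning over 50% inhibition versus plate controls; inconclusive = some replicates but at most half score below -50%; inactive = no replicate scores below -50%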;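 note: 0% = median DMSO wells and -100% = median GW8510 positive control wells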
#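 Assay system: GST-tagged human GSK3beta kinase, cell-free; Input: 1.6 ng GSK3beta; Medium: Tris/MgCl2 kinase buffer; Timing: 60 min enzyme reaction, room temperature; Signal: ADP-Glo luminescence quantifying ADP generated by kinase; Evaluation: score relative to plate controls; Benchmarks: DMSO neutral wells and GW8510 at 20 µM as positive.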
# Platelet DG rel: modulates dense granule release in human platelets; human platelet-rich plasma, SFLLRN dense granule ATP release, luminescence; inhibition, %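 (compounds screened at 7.5 µM in platelet-rich plasma)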; 300,000 compounds, 0.22% hits;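 active = mean replicate score, as percent of positive control, at or above 50; inconclusive = mean below 50 but at least one replicate at or above 50; inactive = mean and every replicate below 50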
# * marks the source's active call; other numbers are inactive results; i = inactive; ? = inconclusive; / = not tested or not shown; & = joins results of further samples. An excerpt; rates above refer to the full screens.
canonical_smiles | HSP90 refold inh | GSK3B inh | GSK3A inh | AI-2 QS modul | Platelet DG rel | PolyA inh | HDAC3 inhib
NCCc1ccc(O)cc1 | -0.1 | 1.2 | / | 18.7 | -9.3 | i | /
Cc1ccc(S(=O)(=O)N(C)N=O)cc1 | / | / | 0.8 | / | / | / | 4.2
N[C@@H]1C[C@H]1c1ccccc1 | / | / | 0.9 | / | / | / | -3.5
COc1cc(OC)c2c(c1)OCC1CON(C)C21 (centres undefined) | -4.0 | 0.5 | -2.9 | 11.0 | 14.0 | i | 2.9
C#CCN(C)[C@H](C)Cc1ccccc1 | -2.0 | -4.3 | -1.4 | 17.9 | 2.7 | i | /
O=C(Nc1ccc(F)cc1F)c1cccnc1Oc1cccc(C(F)(F)F)c1 | -2.7 | 1.0 | -0.4 | 16.3 | -0.5 | i | ?
CCC(=O)CC(c1ccc([N+](=O)[O-])cc1)c1c(O)c2ccccc2oc1=O (centres undefined) | -0.9 | -1.3 | -6.0 | 13.5 | 2.2 | i | ?
CC(NC(C)(C)C)C(=O)c1cccc(Cl)c1 (centres undefined) | -0.7 | 2.3&-2.0 | -1.2&-2.3 | 24.7&8.5 | -3.3&0.4 | i | -14.6&-2.8
CCCCC(=O)N/N=C/c1c(O)n(CC)c(=S)n(CC)c1=O | 1.0 | 0.0 | / | 48.3 | 1.7 | i | 6.9

# Some of the entries so far, with values under each structure.
# Value order: HSP90 refold inh, GSK3B inh, GSK3A inh, AI-2 QS modul, Platelet DG rel, PolyA inh, HDAC3 inhib
> NCCc1ccc(O)cc1
    -0.1, 1.2, /, 18.7, -9.3, i, /
> Cc1ccc(S(=O)(=O)N(C)N=O)cc1
    /, /, 0.8, /, /, /, 4.2
> N[C@@H]1C[C@H]1c1ccccc1
    /, /, 0.9, /, /, /, -3.5
> COc1cc(OC)c2c(c1)OCC1CON(C)C21 (centres undefined)
    -4.0, 0.5, -2.9, 11.0, 14.0, i, 2.9
> C#CCN(C)[C@H](C)Cc1ccccc1
    -2.0, -4.3, -1.4, 17.9, 2.7, i, /
> O=C(Nc1ccc(F)cc1F)c1cccnc1Oc1cccc(C(F)(F)F)c1
    -2.7, 1.0, -0.4, 16.3, -0.5, i, ?
> CCC(=O)CC(c1ccc([N+](=O)[O-])cc1)c1c(O)c2ccccc2oc1=O (centres undefined)
    -0.9, -1.3, -6.0, 13.5, 2.2, i, ?
> CC(NC(C)(C)C)C(=O)c1cccc(Cl)c1 (centres undefined)
    -0.7, 2.3&-2.0, -1.2&-2.3, 24.7&8.5, -3.3&0.4, i, -14.6&-2.8
> CCCCC(=O)N/N=C/c1c(O)n(CC)c(=S)n(CC)c1=O
    1.0, 0.0, /, 48.3, 1.7, i, 6.9

# Bioassay records deposited in PubChem by several laboratories.
